Screening results: PubChem, several laboratories
Mtb hypoxia rep: inhibitors of hypoxia-regulated fluorescent reporter in Mycobacterium tuberculosis | AID 1159583 | 0.1% of 300,000 active | fluorescence inhibition, % (no concentration beside the values) | M. tuberculosis hypoxia-regulated fluorescent reporter, fluorescence;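 active = 35 to 45% if threefold the growth effect, above 45% if 1.5-fold the growth effect; inactive = the rest, general growth blockers included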;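 note: wells of about 50 µL received 100 nL stock; 0% = vehicle wells and 100% = reference inhibitor wells; whole bacteria with a GFP reporter of the hypoxia response; strong numbers were not always called active; many hits fall short of the cut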
PrP 5UTR inh: suppresses PrP 5' UTR mRNA reporter expression; 0.35% of 340,000 active; cell-based PrP 5' UTR mRNA reporter, plate reader; inhibition, % (test concentration not listed);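 active = every replicate at 50% or more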;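 note: 0 = median of the neutral control wells; tested in H4 reporter cells; numbers are from one replicate; inactives centre near -14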
Bead autofluor: counter-screen for toxin protease inhibitors: compound fluorescence | compound autofluorescence counterscreen, microsphere flow cytometry; stronger effect = higher value | fluorescence intensity (test concentration not listed) | 3.1% of 360,000 active | AID 624483;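 active = at least 3 SD above the mean of all compounds, about 16000 in these data; inconclusive = too few beads counted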;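 note: 100 nL of 1 mM stock went into each well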
BJeLR lethal: kills HRASV12-expressing BJeLR cells | BJeLR (HRASV12) viability, CellTiter-Glo ATP luminescence, 48 h; reference of the scale not given here | inhibition, % (no concentration beside the values) | 0.17% of 300,000 active;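 active = replicate mean above 50%; inconclusive = above 50% but judged a plate artefact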;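 note: 50 nL library stock added to about 25 µL; numbers are from one replicate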
ugtP null kill: compounds lethal to S. aureus RN4220 ugtP deletion mutant. OD600 growth, 16 h; some inactives read as strong as hits. growth inhibition, % (concentration not given with the values). 0.54% of 330,000 active. AID 1259309;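 active = z-score under -3 and OD600 up to 0.15 on both plates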;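 note: plate controls were untreated wells for no effect and antibiotic for full effect; wells of about 80 µL received 100 nL stock; the first replicate is given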
Sa RN4220 lethal: S. aureus RN4220 growth inhibition | AID 1259311 | inhibition, % (test concentration not listed) | OD600, 16 h | 0.33% of 330,000 active;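 active = z-score of -3 or lower and OD600 up to 0.18 on both plates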;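 note: plate controls were untreated cells for no effect and reference antibiotic for full effect; stock transfer was 100 nL into about 80 µL; one replicate is shown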
Mtb hypoxia rep growth: recorded beside Mtb hypoxia rep, whose call it bears; growth inhibition, %; measured here: M. tuberculosis growth (absorbance);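 0% = vehicle and 100% = reference antibiotic; read after six days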
* hit, by the source's call; ? = inconclusive; . = not tested or not shown.

SMILES | Mtb hypoxia rep | Mtb hypoxia rep growth | PrP 5UTR inh | Bead autofluor | BJeLR lethal | ugtP null kill | Sa RN4220 lethal
COc1ccccc1NC(=O)Nc1nc(CC(=O)N2CCN(c3ccccc3F)CC2)cs1 | 2 | 1 | -8 | . | -4 | -5 | 1.8
Cc1nn(C)c(C(=O)Nc2ccc(Br)cc2F)c1Br | -6 | 2 | -29 | 2452 | -14 | -2 | 11
Cc1ccc(-n2nnnc2-c2cnoc2-c2cccc(F)c2)cc1 | 3 | 7 | -1 | 3042 | -3 | 8 | 13
O=C(CCCN1C(=O)CCC1=O)Nc1ccc(Cl)c(C(F)(F)F)c1 | . | . | -6 | 4937 | 4 | -3 | 3.8
CC(C)n1cnc2cc(NCc3nc4ccccc4n3C)ccc21 | -3 | 8 | -19 | 10012 | -5 | 0 | -7.0
CC(C)Oc1cccc(C(=O)C2CCCN(C(=O)c3ccsc3)C2)c1 (configuration not stated) | 13 | 10 | -7 | 3585 | 14 | 7 | 5.3
CCOc1cc(NC(=O)CCl)c(OCC)cc1NC(C)=O | . | . | -34 | 4726 | -3 | -3 | 1.3
Cc1ccc(C(=O)N[C@H](C(=O)OCC(=O)NC2CCS(=O)(=O)C2)C(C)C)cc1 (some centres not stated) | . | . | -13 | 2566 | -2 | 2 | 2.2
CC1CCN(S(=O)(=O)c2ccc3[nH]c(=O)cc(C(=O)O)c3c2)CC1 | 5 | 3 | -11 | 13269 | 2 | 5 | 0.8
COc1cccc(C2Cc3ccccc3C(=O)O2)c1 (configuration not stated) | 6 | 6 | -49 | 8630 | -5 | 7 | 2.5
CCOC(=O)C(=CNc1nc(-c2ccccc2)c(C(=O)Nc2ccc(-c3ccccc3)cc2)s1)C(=O)OCC | 3 | -1 | -32 | 8342 | -1 | 8 | 4.6
CC1(C)CC(=O)c2cnc(NC(=O)CSC(=S)N3CCCCC3)nc2C1 | 14 | -3 | -18 | 5983 | -2 | 9 | 4.0
COC(=O)c1c(NC(=O)c2cccnc2)sc(C(=O)N(C)C)c1C | 1 | 1 | -20 | 2544 | -8 | 5 | 4.0
COc1ccc(Cn2c(=O)[nH]c3cc(C(=O)NCCCN4CCCCCC4)ccc3c2=O)cc1 | 0 | 0 | -10 | 4887 | -8 | -1 | 3.7
O=C(O)/C=C/C(=O)Nc1ccccc1SC(F)(F)C(F)(F)C(F)(F)F | -13 | -6 | -26 | 4151 | 3 | -7 | 2.2
Cc1csc(NC(=O)CSc2nnc(-c3cc(C)on3)o2)n1 | 12 | 12 | -13 | 2082 | 8 | 2 | 0.1
CCOC(=O)c1ccc(S(=O)(=O)N2CCN(C(=O)c3ccccn3)CC2)cc1 | 15 | 4 | -13 | 3943 | . | 5 | 7.6
COC(=O)c1ccc(NC(=S)NN2CCCCC2c2cccnc2)cc1 (configuration not stated) | -1 | 12 | -5 | 3468 | 1 | -2 | -2.1
COCCN1CCN(C(=O)C2CCC(=O)N(Cc3ccccc3OC)C2)CC1 (configuration not stated) | -3 | 1 | -10 | 6237 | -6 | -1 | -2.4
CCC(C)(C(=O)NC1CCCCC1)N(Cc1ccco1)C(=O)c1ccc2c(c1)OCO2 (configuration not stated) | 3 | 6 | -15 | 10295 | 0 | -7 | 4.2
CC(OC(=O)CN1C(=O)COc2ccccc21)C(=O)NCc1ccc(F)cc1 (configuration not stated) | -9 | 3 | -6 | 5934 | -1 | 4 | -0.1
Nc1c(C(=O)NC2CCCCC2)nsc1C(=O)OCC(=O)NC1CCCCC1 | 8 | 11 | -9 | 9855 | -2 | 2 | -0.5
c1ccc(-c2cnc(CN3CCN(c4ccccc4)CC3)o2)cc1 | -8 | 5 | -24 | 3653 | -9 | 9 | 1.9
COc1ccc(C(=O)N(C)Cc2ccon2)cc1OC1CCN(C(C)C)CC1 | 1 | 6 | -10 | 5174 | 0 | 5 | -2.3
CC(C)Oc1ccc(C2CC(=O)NC2=O)cc1 (configuration not stated) | 0 | 11 | -16 | 3874 | -4 | 4 | 0.2
CCc1ccc(N/C(SC)=C(/C#N)C(N)=O)cc1 | 2 | 10 | -8 | 11041 | -1 | 2 | -2.8
CCOc1ccc(/C=C/C(=O)OCC(=O)c2ccccc2OC)cc1OC | -9 | -4 | -21 | ? | -7 | 5 | 3.6
c1cncc(CNCCc2c[nH]c3ccccc23)c1 | -1 | -3 | 32 | 3157 | -4 | 2 | 0.3
O=S(=O)(NCc1cccc(C(F)(F)F)c1)NCc1ccccc1F | -6 | 3 | -39 | 2346 | 6 | -4 | 6.4
COc1ccc(-c2noc(COc3ccc4c(c3)OCO4)n2)cc1OC | -1 | 1 | -8 | 2401 | 20 | 2 | 4.1
CC(Oc1ccc(Cl)cc1Cl)C(=O)NNC(=O)C(=O)N1CCCCC1 (configuration not stated) | -2 | -5 | -9 | 3038 | -3 | -7 | 4.0
O=C(CN1CCN(c2ncc(C(F)(F)F)cc2Cl)CC1)Nc1ccc2c(c1)OCO2 | -1 | 6 | -21 | 7589 | -2 | 0 | 2.5
CCOC(=O)COc1ccc(S(=O)(=O)Nc2ccc3c(c2)OCO3)cc1 | 7 | -5 | -1 | 11349 | -2 | 6 | 5.1
Cc1nc(NC(=O)CSc2nc(N)cc(N)n2)sc1C | 2 | 1 | -24 | 5501 | 0 | 3 | 5.5
CCCn1c(C)cc(/C=C(\C#N)C(=O)OCC(=O)Nc2ccc(OC)c(Cl)c2)c1C | 3 | 7 | -20 | 2389 | 6 | -9 | -2.4
O=C(CN(c1cc(Cl)ccc1Cl)S(=O)(=O)c1ccccc1)N1CCOCC1 | 0 | -1 | -4 | ? | 2 | 0 | 7.6
O=C(O)c1cccc(-n2cccc2/C=C2/NC(=O)N(Cc3ccccc3F)C2=O)c1 | . | . | -33 | 4018 | 0 | . | .
O=C1c2ccccc2NC(c2ccc(-c3cccs3)o2)N1O (configuration not stated) | 12 | 4 | -34 | 3518 | . | -35 | 7.6
N/C(=N\OC(=O)COc1ccc(Br)cc1)c1cccc([N+](=O)[O-])c1 | . | . | -23 | 3936 | -9 | . | .
O=C(NCCCN1CCOCC1)C1CCC(=O)N1C1CCCCC1 (configuration not stated) | 6 | 6 | -13 | 15799 | -10 | 14 | 4.5

Part of the list above, with each value named:
SMILES: CC(OC(=O)CN1C(=O)COc2ccccc21)C(=O)NCc1ccc(F)cc1 (configuration not stated)
- Mtb hypoxia rep: -9
- Mtb hypoxia rep growth: 3
- PrP 5UTR inh: -6
- Bead autofluor: 5934
- BJeLR lethal: -1
- ugtP null kill: 4
- Sa RN4220 lethal: -0.1
SMILES: Nc1c(C(=O)NC2CCCCC2)nsc1C(=O)OCC(=O)NC1CCCCC1
- Mtb hypoxia rep: 8
- Mtb hypoxia rep growth: 11
- PrP 5UTR inh: -9
- Bead autofluor: 9855
- BJeLR lethal: -2
- ugtP null kill: 2
- Sa RN4220 lethal: -0.5
SMILES: c1ccc(-c2cnc(CN3CCN(c4ccccc4)CC3)o2)cc1
- Mtb hypoxia rep: -8
- Mtb hypoxia rep growth: 5
- PrP 5UTR inh: -24
- Bead autofluor: 3653
- BJeLR lethal: -9
- ugtP null kill: 9
- Sa RN4220 lethal: 1.9
SMILES: COc1ccc(C(=O)N(C)Cc2ccon2)cc1OC1CCN(C(C)C)CC1
- Mtb hypoxia rep: 1
- Mtb hypoxia rep growth: 6
- PrP 5UTR inh: -10
- Bead autofluor: 5174
- BJeLR lethal: 0
- ugtP null kill: 5
- Sa RN4220 lethal: -2.3

The results go on.
SMILES | Mtb hypoxia rep | Mtb hypoxia rep growth | PrP 5UTR inh | Bead autofluor | BJeLR lethal | ugtP null kill | Sa RN4220 lethal
O=C(O)c1ccc(N/N=C/c2ccc(-c3ccc(Cl)cc3Cl)o2)cc1 | . | . | -29 | 4187 | -1 | . | .
Cc1cc2cc(C)c3nnc(SCc4ccccn4)n3c2cc1C | -1 | -5 | 5 | 2520 | -6 | 3 | 1.4
Cc1cc(=O)[nH]c(SCC(=O)Nc2ccc(S(=O)(=O)N3CCCCC3)cc2)n1 | 3 | 8 | 5 | 9153 | 3 | -3 | 4.0
CC(C)n1cnnc1SCC(=O)NNC(=O)COc1ccc(Cl)cc1 | 5 | -7 | 3 | . | -2 | 0 | 2.3
CN(CCCC(=O)Nc1nccs1)S(=O)(=O)c1ccc(Cl)cc1 | 1 | 5 | -11 | 5564 | 6 | -3 | 1.7
OCC1(CCCc2ccccc2)CCN(Cc2ccc(F)cc2)CC1 | 24 | 12 | -38 | 2616 | -3 | 0 | 1.4
C=CCNC(=O)c1ccc(Cl)cc1Cl | . | . | -23 | 3090 | . | 1 | 4.7
COc1ccc(NS(=O)(=O)c2cc(NC(=O)CNC(=O)c3cccc(OC)c3)ccc2C)cc1 | 11 | 6 | -11 | 2576 | -17 | 27 | 0.4
COc1ccc(C=NNC(=O)c2cc[n+]([O-])cc2)cc1 | 4 | -2 | . | . | . | 2 | 0.6
CC(C)CC12CN3CCN(CC(C3)/C1=N/O)C2 | . | . | -25 | 11128 | 8 | . | .
COc1ccc(CCN2CC(C(=O)OCC(=O)Nc3c(C)nn(-c4ccccc4)c3C)CC2=O)cc1OC (configuration not stated) | 2 | 6 | -19 | ? | -1 | 5 | 0.6
Cc1ccccc1NC(=O)C1(NC(=O)c2cccc(N3C(=O)CSC3c3ccccc3)c2)CCCCC1 (configuration not stated) | 9 | 2 | -11 | 3046 | -5 | -4 | -2.3
Cc1cc([N+](=O)[O-])nn1Cc1ccc(C(=O)NN=Cc2ccc(O)cc2O)cc1 | 11 | -1 | . | . | . | 2 | 13
CC(C)(C)c1ccc(OCCC(=O)NNC(=O)c2ccncc2)cc1 | . | . | -7 | 4476 | -3 | -4 | 3.1
Cc1cc(C)c2nc(SCC(=O)NNC(=O)c3ccco3)c(C)cc2c1 | 9 | -4 | -12 | 4564 | . | -6 | 3.7
CCC(C)NC(=O)CSc1nc2ccccc2c(=O)n1CCCC(=O)NCC1CCCO1 (configuration not stated) | 1 | 14 | -2 | 22505* | -5 | -7 | -3.0
COc1cc(CCNC(=O)CCCn2c(=O)c3cccn3c3cccnc32)cc(OC)c1OC | 0 | 0 | 5 | 5280 | 2 | 9 | 2.4
COc1ccc(C=NN2CCOCC2)cc1Cn1nc(C)c([N+](=O)[O-])c1C | 3 | 8 | . | . | . | -2 | 3.2
CCCCc1nc2cc(C(=O)N3CCCCC3C(=O)OC)ccc2o1 (configuration not stated) | -3 | -3 | -46 | 6137 | 2 | 0 | 5.0
Cc1ccc(C)c(S(=O)(=O)N2CCN(C(=O)CSc3ccccc3)CC2)c1 | 16 | 7 | -16 | 5137 | 1 | 13 | 5.3
C/C(=N\NC(=O)c1ccc(F)cc1)c1ccccn1 | . | . | 11 | 3795 | 106* | . | .
CC(Oc1ccc2c3c(c(=O)oc2c1)CCCC3)C(=O)NCc1ccccn1 (configuration not stated) | 3 | -5 | 6 | 4684 | 12 | 12 | 6.8
COc1ccc(-c2nc3n(c2C)Cc2ccccc2-3)cc1 | 4 | 10 | -51 | 6387 | -11 | 11 | 3.1
CCOc1ccc(NS(=O)(=O)c2ccc(NS(=O)(=O)c3ccccc3)cc2)cc1 | 5 | -6 | -28 | 8285 | -3 | 26 | -5.0
CCn1c(-c2cc(Cl)ccc2OC)n[nH]c1=S | . | . | -20 | 3312 | -3 | 2 | 6.7
Clc1ccccc1Nc1ncnc(-n2cccc2)n1 | 1 | 9 | -53 | 8862 | -11 | -10 | 6.0
CC(OC(=O)Cn1[nH]c(=O)c2ccccc2c1=O)C(=O)Nc1ccc(F)cc1Cl (configuration not stated) | 3 | 7 | -6 | ? | 6 | 2 | 1.7
CC(CCc1ccccc1)NC(=O)C(=O)NCCO (configuration not stated) | 1 | 2 | . | 6706 | 1 | 11 | 5.1
CN1CCN(C(=O)c2ccccc2-c2ccccc2C(=O)O)CC1 | 0 | -1 | -27 | 8028 | 4 | 11 | 6.3
COc1cc(/C=C/C(=O)OCC(=O)NCCC2=CCCCC2)cc(OC)c1OC | -2 | 7 | -11 | 3790 | . | 5 | 3.4
O=C(c1ccc(Oc2ccc(Cl)cc2)c([N+](=O)[O-])c1)N1CCCC1 | 1 | -6 | -9 | 3180 | 4 | 13 | 1.5
O=C1NC(NS(=O)(=O)c2ccccc2)(C(F)(F)F)C(=O)N1CCc1ccccc1 (configuration not stated) | -15 | -6 | -18 | 4867 | -10 | 5 | 3.6
Nc1nc(CSCCO)nc(Nc2ccc(F)cc2)n1 | 4 | 9 | -28 | 4216 | -6 | 0 | 6.4
Cc1ccc(C(=O)NC(=Cc2cccs2)C(=O)NCc2ccco2)cc1 | 4 | 2 | . | . | . | 0 | 7.5
CSc1nc(N2CCOCC2)c2c3c(sc2n1)CCC3 | . | . | 11 | 4257 | 2 | -2 | 1.3
